Assay outcomes from PubChem BioAssay.
BJeLR viability – compounds reducing viability of BJeLR cells; BJeLR fibroblasts viability, CellTiterGlo ATP luminescence, 48 h; HRASV12, hTERT and SV40 LT/ST transformed; viability loss activity score, % (concentration not given with the values); hit rate 0.64% among 30,000; in the data active means viability loss activity score above about 50%; about a fifth of its hits are not listed in these tables;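 further: higher score means fewer live cells and less ATP luminescence; stock transfer was 50 or 100 nL into about 30 µL; 0% = vehicle wells and 100% = a reference killing control; one replicate is shown; the record names a cut of 85%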
A1 inh – inhibitors of A1; caspase activation, % (concentration not given with the values); AID 2241; hit rate 0.51% among 21,000; MEF A1-2A-BIM cells, caspase-Glo luminescence, 3 h; percent of clofoctol signal, DMSO as zero;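 active means most replicate scores above 10, or exactly half above 10 with mean activity above 10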;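 further: effector caspase 3 and 7 activity cleaving a DEVD luciferin substrate; 50 nL library stock added to about 30 µL; numbers are from one replicate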
An asterisk follows results filed as active; · = no result given. This is a subset; the hit share may differ from the screen's.

Molecule,BJeLR viability,A1 inh
Cc1noc(C)c1S(=O)(=O)Nc1cccc2c1O[C@H](CN(C)S(=O)(=O)c1cn(C)cn1)[C@H](C)CN([C@H](C)CO)C2=O,-1.3,·
COc1ccc(NC(=O)Nc2ccc3c(c2)C(=O)N([C@H](C)CO)C[C@H](C)[C@@H](CN(C)C)O3)cc1,-6.5,0.5
O=C1CC2Sc3ccccc3N=C2N1Cc1ccccn1 (stereo not given),0.2,0.1
COc1c(O)cc2c(c1O)C(=O)CC(c1ccccc1)O2 (stereo not given),0.1,-0.9
COC(=O)c1cc2c(N)c(C(=O)OC)sc2nc1C(OC)OC,-5.6,0.0
Clc1nsnc1N1CCOCC1,4.4,-0.4
CCc1ccc(-c2nc(CSCC(=O)N3CCc4ccccc43)c(C)o2)cc1,0.1,·
O=C(NCc1cn2ccccc2n1)c1ccco1,-0.5,1.0
COc1ccccc1NC(=O)c1ccc(C(C)(C)C)cc1,4.0,-2.6
CC(=O)Cc1cc(O)cc2oc(C)cc(=O)c12,-0.5,-0.5
COc1ccc(S(=O)(=O)N(C)C[C@H]2Oc3ccc(NC(=O)CCCCCC(=O)Nc4ccccc4N)cc3C(=O)N([C@H](C)CO)C[C@H]2C)cc1,5.9,·
O=C1CC(c2ccccc2)Oc2ccc(Cl)cc21 (stereo not given),0.1,·
Oc1ccc(Br)cc1C=Nc1cccc2nsnc12,-5.8,·
C[C@@H]1CN([C@H](C)CO)C(=O)c2cc(NC(=O)CCCN(C)C)ccc2O[C@@H]1CN(C)Cc1ccccc1,-6.0,-0.2
O=C(Nc1cccc(C(F)(F)F)c1)NC1CC(=O)N(Cc2ccccc2)C1 (stereo not given),-4.4,-0.5
Cc1noc(C)c1NC(=O)Nc1ccc2c(c1)C(=O)N([C@H](C)CO)C[C@@H](C)[C@H](CN(C)Cc1ccc(C(=O)Nc3ccccc3N)cc1)O2,-1.9,·
CC(C)c1nc(N2CCN(C(=S)NC3CCCCC3)CC2)c(C#N)c2c1CCCC2,-4.1,-0.6
CCCN(CCC)C(=O)c1c(NC(=O)c2ccco2)sc2c1CCC(C)C2 (stereo not given),-0.3,-0.1
CNC[C@@H]1Oc2ccc(NC(=O)Nc3ccc(OC)cc3)cc2C(=O)N([C@@H](C)CO)C[C@@H]1C,0.4,-0.2
NS(=O)(=O)c1ccc(N=C2NC(=O)C(CC(=O)Nc3ccccc3)S2)cc1 (stereo not given),-0.7,0.6
C=CCNC(=O)COc1nc(-c2cccs2)cc(C(F)(F)F)n1,-1.7,-0.3
N#Cc1ccc2c(c1)N(CCCN1CCC(O)CC1)c1ccccc1S2,0.1,0.4
C[C@@H]1CN([C@@H](C)CO)C(=O)c2cccc(NC(=O)C3CCCCC3)c2O[C@H]1CN(C)Cc1ccc2c(c1)OCO2,0.9,·
C[C@H](CO)N1C[C@H](C)[C@@H](CN(C)Cc2ccc(Cl)c(Cl)c2)Oc2c(NC(=O)C3CCCCC3)cccc2C1=O,1.6,·
COc1cc2c(cc1OC)CN(C(=O)c1sc(-c3cnccn3)nc1C)CC2,1.1,0.4
O=C(Nc1ccc(Cl)cc1)OCc1nccn1Cc1ccc(Cl)cc1,-3.1,0.0
C[C@H]1CN([C@@H](C)CO)C(=O)c2cccc(NS(C)(=O)=O)c2O[C@@H]1CN(C)S(=O)(=O)c1ccc(F)cc1,1.6,·
CCc1ccc(/C=N/n2c(C)nnc2-n2nc(C)cc2C)cc1,-0.8,-0.2
Cc1noc(C)c1NC(=O)Nc1cccc2c1O[C@@H](CN(C)S(=O)(=O)c1cn(C)cn1)[C@H](C)CN([C@H](C)CO)C2=O,-1.7,·
C[C@H](CO)N1C[C@H](C)[C@H](CN(C)C(=O)Nc2ccc(C(F)(F)F)cc2)Oc2c(NC(=O)Nc3ccccc3)cccc2C1=O,4.6,·
CCN(CC)c1ccc2cc(C(=O)Nc3ccccc3)c(=N)oc2c1,0.2,-0.3
C[C@H](CO)N1C[C@H](C)[C@@H](CN(C)Cc2ccncc2)Oc2ccc(NS(=O)(=O)c3cn(C)cn3)cc2C1=O,-8.6,-0.1
COc1ccc(-n2c3c(cc(C(N)=O)c2=O)C(=O)CC(C)(C)C3)cc1,6.8,-0.2
Cc1ccc(C(=O)N/C(=C\c2ccccc2)C(=O)Nc2c(C)n(C)n(-c3ccccc3)c2=O)cc1,-0.9,0.4
CNC(=O)C(C)n1sc2ccccc2c1=O (stereo not given),-4.0,0.5
COc1ccc(-n2ncc(NC(=O)Nc3ccc4c(c3)OCCCO4)c2C)cc1,-4.6,1.1
Cc1ccc(S(=O)(=O)Nc2ccc3c(c2)C(=O)N([C@H](C)CO)C[C@H](C)[C@H](CN(C)C(=O)NC2CCCCC2)O3)cc1,-8.0,-0.1
C[C@H]1CN([C@@H](C)CO)C(=O)c2cc(NC(=O)Cc3ccccc3)ccc2O[C@@H]1CN(C)C(=O)Nc1cccc2ccccc12,2.2,0.5
O=C(/C=C/c1ccccc1)NCCCCNCCCNC(=O)/C=C/c1ccccc1,1.9,0.0
Cc1nn(Cc2cccc3ccccc23)c(C)c1NC(=O)C1CC1c1ccccc1 (stereo not given),-1.3,1.3
C[C@H]1CN([C@@H](C)CO)C(=O)c2cc(NS(=O)(=O)c3ccc(Cl)cc3)ccc2O[C@H]1CN(C)S(=O)(=O)c1cccs1,2.5,-0.5
Cc1ccc(S(=O)(=O)Nc2cccc3c2O[C@H](CN(C)Cc2ccc(C(F)(F)F)cc2)[C@@H](C)CN([C@H](C)CO)C3=O)cc1,8.5,·
COc1ccc(CN(C)C[C@@H]2Oc3c(NS(=O)(=O)c4ccc(C)cc4)cccc3C(=O)N([C@@H](C)CO)C[C@H]2C)cc1,-0.4,·
C[C@@H]1CN([C@@H](C)CO)C(=O)c2cc(NC(=O)Cn3cnnn3)ccc2O[C@H]1CN(C)Cc1ccccc1,-7.7,-0.2
CC(C)NC(=O)Nc1ccc2c(c1)C(=O)N([C@H](C)CO)C[C@@H](C)[C@@H](CN(C)Cc1ccc(C(=O)Nc3ccccc3N)cc1)O2,2.8,·
COc1cc([C@H]2c3cc(O)c(OC)cc3C[C@@](O)(CO)[C@@H]2CO)ccc1O,-1.0,-0.3
O=C(c1cncc(NS(=O)(=O)c2ccc(Cl)cc2)c1)N1CCCc2ccccc21,1.8,-0.3
C[C@@H]1CN([C@H](C)CO)C(=O)c2cc(NC(=O)CCCN(C)C)ccc2O[C@H]1CN(C)Cc1ccc(Oc2ccccc2)cc1,2.8,-0.4
C[C@H]1CN([C@@H](C)CO)C(=O)c2cc(NC(=O)C3CC3)ccc2O[C@@H]1CN(C)C(=O)Nc1ccc(F)cc1,2.9,0.5
C[C@H]1CN([C@@H](C)CO)C(=O)c2cc(NS(=O)(=O)c3cn(C)cn3)ccc2O[C@H]1CN(C)Cc1ccc(C(=O)O)cc1,3.6,-0.4
NC(=NC(=O)c1ccc(Cl)cc1)c1ccc(C(F)(F)F)cn1,-4.2,-1.2
C[C@@H]1CN([C@H](C)CO)C(=O)c2cc(NC(=O)Cc3cn(C)c4ccccc34)ccc2O[C@@H]1CN(C)Cc1ccc(Oc2ccccc2)cc1,-1.5,-0.5
COc1cc(CCc2cc(OC)c(C)cc2OC)c(OC)cc1C,-1.7,-0.2
CCn1cc(-c2ccc3ccccc3n2)c(=S)c2ccccc21,2.1,·
C[C@@H]1CN([C@H](C)CO)C(=O)c2cc(NC(=O)Cc3ccccc3)ccc2O[C@@H]1CN(C)Cc1ccc(-c2ccccc2)cc1,-2.9,-0.6
C[C@H](CO)N1C[C@H](C)[C@@H](CN(C)S(=O)(=O)c2ccc(F)cc2)Oc2c(NC(=O)C3CCCCC3)cccc2C1=O,-5.1,·
C[C@H](CO)N1C[C@H](C)[C@H](CN(C)CC2CCCCC2)Oc2c(NC(=O)Nc3ccc(F)cc3)cccc2C1=O,3.2,·
COc1cc(-c2oc3cc(O)c(OC)c(O)c3c(=O)c2OC)ccc1O,36,-3.6
CCn1c(=S)[nH]c2ccccc21,-3.0,1.2
CC(C)N(C(=O)c1ccc(-c2nnc(-c3ccccc3)o2)cc1)C(C)C,-3.2,-1.7

Nothing new here: an excerpt of the list.
Molecule,BJeLR viability,A1 inh
C[C@@H]1CN([C@H](C)CO)C(=O)c2cc(NC(=O)Cc3ccccc3)ccc2O[C@@H]1CN(C)Cc1ccc(-c2ccccc2)cc1,-2.9,-0.6
C[C@H](CO)N1C[C@H](C)[C@@H](CN(C)S(=O)(=O)c2ccc(F)cc2)Oc2c(NC(=O)C3CCCCC3)cccc2C1=O,-5.1,·
C[C@H](CO)N1C[C@H](C)[C@H](CN(C)CC2CCCCC2)Oc2c(NC(=O)Nc3ccc(F)cc3)cccc2C1=O,3.2,·
COc1cc(-c2oc3cc(O)c(OC)c(O)c3c(=O)c2OC)ccc1O,36,-3.6
CCn1c(=S)[nH]c2ccccc21,-3.0,1.2
CC(C)N(C(=O)c1ccc(-c2nnc(-c3ccccc3)o2)cc1)C(C)C,-3.2,-1.7

New compounds follow:
Molecule,BJeLR viability,A1 inh
O=C(CN1CCN(Cc2ccc(F)cc2Cl)C1=O)NCc1ccc(Cl)cc1,-3.8,·
C[C@H](CO)N1C[C@H](C)[C@@H](CN(C)S(=O)(=O)c2cccs2)Oc2c(NC(=O)Nc3ccc(C(F)(F)F)cc3)cccc2C1=O,0.3,·
C[C@@H]1CN([C@@H](C)CO)C(=O)c2cccc(NC(=O)C3CC3)c2O[C@@H]1CN(C)Cc1ccc(C(F)(F)F)cc1,-12,·
COc1ccc(CCNC(=O)c2cn(C3CCCC3)c(=O)c3c2c2ccccc2n3C)cc1OC,-16,·
CCOC(=O)C1=C(C)NC(SCc2ccc(C(=O)O)cc2)=NC1c1ccc(OCC)cc1 (stereo not given),2.3,·
COc1cc(COc2ccc3c4c(c(=O)oc3c2)CCC4)cc(OC)c1OC,7.2,0.4
O=C(O)c1ccc(COc2ccccc2/C=C2\NC(=O)N(Cc3ccccc3)C2=O)cc1,-1.1,-0.6
CN1CCN(C(=O)NCC23CC4CC(CC(C4)C2)C3)CC1,-0.5,·
COc1ccc(S(=O)(=O)N(C)C[C@H]2Oc3c(NS(C)(=O)=O)cccc3C(=O)N([C@H](C)CO)C[C@@H]2C)cc1,4.1,·
CCOC(=O)CSc1c(-c2cccs2)[nH]c2ccccc12,1.5,0.8
Fc1c(F)c(C(F)(F)F)c(F)c2c1Oc1cc(Cl)c(Cl)cc1O2,3.7,-1.4
Cc1ccc(S(=O)(=O)N(C)C[C@@H]2Oc3ccc(NC(=O)Cc4cn(C)c5ccccc45)cc3C(=O)N([C@H](C)CO)C[C@H]2C)cc1,-10,-0.2
CC(C)NC(=O)Nc1ccc2c(c1)C(=O)N([C@H](C)CO)C[C@@H](C)[C@H](CN(C)Cc1ccccc1)O2,-8.6,-0.6
Cc1cc(C(=O)Nc2cccc3c2O[C@H](CN(C)C(=O)Nc2ccc(F)cc2)[C@@H](C)CN([C@H](C)CO)C3=O)n(C)n1,-2.6,·
COc1ccc(S(=O)(=O)Nc2ccc3c(c2)C(=O)N([C@H](C)CO)C[C@@H](C)[C@@H](CN(C)CC2CC2)O3)cc1,0.9,0.5
Cc1nc(N)nc(CSc2ccccc2)n1,1.3,-3.2
CCCN(CCC)C(=O)c1c[nH]c2ccc(S(=O)(=O)Nc3ccc(CC)cc3)cc2c1=O,-1.0,·
CCn1c(=NC(=O)CSCC(=O)Nc2nc(-c3ccccc3)cs2)sc2ccccc21,-5.9,·
O=C(CSC1=Nc2ccccc2C2=NC(Cc3ccccc3)C(=O)N12)c1ccc(F)cc1 (stereo not given),-0.5,0.5
Cn1c(SCc2cc(F)cc(F)c2)nnc1-c1ccc2nonc2c1,8.0,0.2
C[C@H](CO)N1C[C@H](C)[C@H](CN(C)C(=O)Nc2ccccc2)Oc2c(NS(=O)(=O)c3cn(C)cn3)cccc2C1=O,-4.2,·
CC(C)NC(=O)N(C)C[C@@H]1Oc2ccc(NS(=O)(=O)c3ccc(Cl)cc3)cc2C(=O)N([C@H](C)CO)C[C@H]1C,0.3,0.1
CC(OC(=O)c1cccc(Cl)c1)c1ccc[n+](C)c1 (stereo not given),5.4,0.6
Cc1cc(C(=O)Nc2cccc3c2O[C@H](CN(C)CC2CCCCC2)[C@H](C)CN([C@@H](C)CO)C3=O)n(C)n1,-3.9,·
COc1ccccc1OCCSc1nc2ccccc2o1,-3.3,-0.9
COc1cc(C2c3c(cc(OC)c(O)c3OC)CC(CO)C2CO[C@@H]2O[C@H](CO)[C@@H](O)[C@H](O)[C@H]2O)cc(OC)c1O (stereo not given in full),1.6,0.8
COCc1cc(O)c(O)c(O)c1-c1c(COC)cc(O)c(O)c1O,2.0,-1.2
CC(C)CN(CC(C)C)S(=O)(=O)c1ccc(C(=O)Nc2nnc(-c3cccs3)o2)cc1,17,·
CCCCn1c(SCC(=O)NC2CCCC2)nc2c(sc3ccccc32)c1=O,-5.6,0.7
CC(=O)N/C(=C\c1cccs1)C(=O)O,-5.9,0.6
O=C(Nc1ccccc1SCCS(=O)(=O)c1ccc(Cl)cc1)c1ccccc1Cl,0.5,0.4
O=C(NC1CC1)C1C2C=CC3(CN(Cc4ccccc4Cl)C(=O)C13)O2 (stereo not given),-0.3,·

Quoted from the listing.
Fc1c(F)c(C(F)(F)F)c(F)c2c1Oc1cc(Cl)c(Cl)cc1O2 – BJeLR viability: 3.7
COc1ccc(-n2ncc(NC(=O)Nc3ccc4c(c3)OCCCO4)c2C)cc1 – BJeLR viability: -4.6
